VDR inh: Inhibitors of the vitamin D receptor (VDR): qHTS | actives 0.93% (n = 400,000) | Vitamin D3 receptor (Homo sapiens), P11473 | Potency, µM, inactives show max response, negative = inhibition, usual class: inhibitors | VDR-SRC2-3 peptide fluorescence polarization, 2 h; active means well fitted inhibition curve with a large enough effect; inconclusive means small, poorly fitted or top-dose-only effect, or another doubt; inactive means no such curve, though single readings can be large or run the other way; further: series mostly up to about 120 µM
Target sequence (P11473 whole entry, looked up): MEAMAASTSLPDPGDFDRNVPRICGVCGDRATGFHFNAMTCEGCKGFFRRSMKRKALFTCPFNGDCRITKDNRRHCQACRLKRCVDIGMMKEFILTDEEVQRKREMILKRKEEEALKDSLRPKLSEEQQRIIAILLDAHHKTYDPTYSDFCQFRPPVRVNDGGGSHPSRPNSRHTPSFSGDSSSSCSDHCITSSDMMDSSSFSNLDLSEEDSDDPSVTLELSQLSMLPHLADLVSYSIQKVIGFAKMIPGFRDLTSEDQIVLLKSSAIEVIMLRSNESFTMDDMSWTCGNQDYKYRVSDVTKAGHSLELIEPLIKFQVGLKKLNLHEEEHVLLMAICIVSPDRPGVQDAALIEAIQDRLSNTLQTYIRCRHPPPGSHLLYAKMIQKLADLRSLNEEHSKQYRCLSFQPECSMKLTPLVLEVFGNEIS
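Compounds are added to VDR with labelled SRC2-3 coactivator peptide and held 2 h at room temperature. Inhibition of the VDR–peptide interaction is then read as a change in fluorescence polarization.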
Active calls of the source: *; ? = inconclusive; & = joins results of further samples; [ ] = dose if it differs, or a comment. On the % scale 0 is the no-effect control and ±100 the full control effect; potency means the concentration at half of the fitted maximal effect.

VDR inh	molecule
-9.4%	CCOC(=O)c1ccc(NC(=O)Nc2cc3c(cc2N2CCCCC2)n(CC)c(=O)n3CC)cc1
3.2%	Nc1c(-c2ccc(Cl)cc2)cnn1C1CCS(=O)(=O)C1 (centres undefined)
15.6%	Cc1cccc(NC(=O)c2ccc(N3C(=O)C4CCCCC4C3=O)cc2)c1C (centres undefined)
?	CC(C)(CC(=O)O)CC(=O)N1CCCN(c2nccc(C(F)(F)F)n2)CC1
13.1%	CCCCOC(=O)c1ccc(NC(=O)Cc2coc3ccc(C(C)C)cc23)cc1
13.3%	CCOC(=O)Nc1ccc2c(CN3CCC(C(=O)OC)CC3)cc(=O)oc2c1
5.9%	COCC(=O)NC1CCN(S(=O)(=O)c2cccc(C(C)=O)c2)CC1
12.0%	CCOc1ccc2nc(SCc3ccc(OC)cc3)sc2c1
4.7%	CC(=O)Nc1ccc(NS(=O)(=O)c2ccccc2)cc1
-2.0%	CN(C)S(=O)(=O)c1cc(NC(=O)COC(=O)CCc2ccccc2)ccc1Cl
89.1µM*	Cc1ccc(-c2cc(C(F)(F)F)n3nc(C(=O)Nc4ccon4)cc3n2)cc1C
-14.2%	O=C(Nc1ccc(Cl)cc1)OCc1cc(-c2ccccc2)on1

An excerpt of these results, field by field:
> CCCCOC(=O)c1ccc(NC(=O)Cc2coc3ccc(C(C)C)cc23)cc1
  VDR inh = 13.1%
> COCC(=O)NC1CCN(S(=O)(=O)c2cccc(C(C)=O)c2)CC1
  VDR inh = 5.9%
> CCOC(=O)Nc1ccc2c(CN3CCC(C(=O)OC)CC3)cc(=O)oc2c1
  VDR inh = 13.3%
> CC(C)(CC(=O)O)CC(=O)N1CCCN(c2nccc(C(F)(F)F)n2)CC1
  VDR inh = ?

More records
VDR inh	molecule
9.4%	O=C1c2ccc(Oc3ccc([N+](=O)[O-])cc3)cc2C(=O)N1c1ccncc1
16.3%	Cc1ccc(S(=O)(=O)NC(=O)c2cccn2C)cc1
-11.6%	COc1cc(CCC(=O)Nc2ccc(Cl)c(C(F)(F)F)c2)cc(OC)c1OC
-4.6%	CC12C=CC(=O)C=C1[C@@H](F)CC1C2C(O)CC2(C)C1CC[C@]2(O)C(=O)CO (some centres undefined)
-10.9%	COc1ccc(OCC(=O)NCCNC(=O)c2ccccn2)cc1
-1.8%	Cc1cccc(-n2[nH]c(C)c(C=Nc3ccc4[nH]c(=O)[nH]c4c3)c2=O)c1
-9.8%	O=C(/C=C/c1ccc([N+](=O)[O-])cc1)NCc1ccccn1
-1.0%	CCOc1ccccc1NC(=O)Cn1c(=O)n(CCCC(=O)NCCc2ccc(C)cc2)c(=O)c2ccccc21
0.0%	COC(=O)C1CCN(C(=O)COC(=O)c2cc(S(=O)(=O)N3CCOCC3)ccc2C)CC1
2.4%	NS(=O)(=O)c1ccc(NC(=O)CSc2n[nH]c(=O)n2C2CC2)cc1
1.9%	Cc1nc(-n2nc(C)c(Cc3ccccc3Cl)c2C)sc1C(=O)Nc1ccccc1F
2.4%	Cc1cc(C)cc(OCCCCn2cncn2)c1
16.0%	CCOC(=O)c1cc(-c2ccc(OC)cc2)n(CCC(=O)NCCc2ccccc2)c1C
-14.8%	C=C(C)Cn1c(C)cc(C)c(S(=O)(=O)c2cccc(C)c2)c1=O
8.2%	O=C(NCc1ccc(F)cc1)C(=O)NCC(c1ccc2c(c1)OCO2)N1CCOCC1 (centres undefined)
-6.3%	O=C(CSc1nnc(Cc2cccs2)n1Cc1ccco1)Nc1ccc(Br)cc1
-2.5%	CN(CC(=O)Nc1ccccc1Br)C(=O)CN(C)C1CCCCC1
-0.9%	COCCCN1CN(Cc2ccco2)CNC1=S
-14.2%	CC1(NC(=O)CC(c2ccccc2)(c2ccccc2)c2ccccc2)CCN(CCCc2ccccc2)C1=O (centres undefined)
-1.4%	COc1cc(OC)c(OC)cc1/C=N/NC(=O)c1cc(-c2cccn2C)n[nH]1
-3.2%	Cc1ccc(C)c(SCC(=O)OCC(=O)Nc2ccc(S(=O)(=O)N3CCOCC3)cc2)c1
21.9%	CCC(C)(C)NC(=O)C(c1ccccc1F)N(Cc1ccco1)C(=O)c1csnn1 (centres undefined)
?	CCOC(=O)c1c(C)[nH]c(C(=O)COC(=O)c2ccco2)c1C
-15.9%	Cc1cc(C)cc(NC(=S)NC2CC3CCCC(C2)N3CC(C)C)c1 (centres undefined)

With a hit mark in VDR inh, of those listed so far:
VDR inh	molecule
89.1µM*	Cc1ccc(-c2cc(C(F)(F)F)n3nc(C(=O)Nc4ccon4)cc3n2)cc1C

(cont.)
VDR inh	molecule
-17.3%	N#CCO/N=C/C(=O)Nc1ccc(F)cc1F
0.9%	O=C(Nc1ccc(-c2nc3cccnc3s2)cc1)c1cccnc1Cl
1.1%	S=c1[nH]nc(Cn2nnc3ccccc32)n1-c1ccc(Cl)cc1
-7.1%	O=C(COc1ccccc1)Nc1sc2c(c1C(=O)NCc1cccnc1)CCCC2
11.7%	Cc1ccc(C)c(S(=O)(=O)N2CCN(C(=O)[C@H](Cc3ccccc3)NC(=O)c3ccco3)CC2)c1
3.9%	COc1cccc2c(=O)n(CC(=O)Nc3ccc(F)cc3F)ccc12
-34.8%	CN(CC(=O)Nc1cccc(F)c1)C(=O)c1ccc2c(c1)NC(=O)CS2
-5.0%	CCOc1ccc(NC(=O)C(=O)N/N=C/c2ccccc2F)cc1
-2.8%	COc1ccc(OC)c(/C=N/NC(=O)CCc2c(C)n[nH]c2C)c1
-15.5%	Cc1ccc(C)c(S(=O)(=O)N/N=C/c2ccc(C(=O)O)cc2)c1
-2.0%	CCN(CC)CCNc1ccc(Cl)cc1[N+](=O)[O-]
2.1%	CCC(=O)NCCC1CCc2ccc3c(c21)CCO3 (centres undefined)

Given bar-delimited: part of the list above.
SMILES | VDR inh
O=C(Nc1ccc(-c2nc3cccnc3s2)cc1)c1cccnc1Cl | 0.9%
S=c1[nH]nc(Cn2nnc3ccccc32)n1-c1ccc(Cl)cc1 | 1.1%

Going on with the list.
VDR inh	molecule
-1.5%	CCOC(=O)COc1c(-c2ccc(OC)cc2)oc2ccccc2c1=O
-7.8%	COC(=O)C1=C(CSc2nnnn2C)NC(=O)NC1c1cc(C)ccc1C (centres undefined)
11.6%	O=C(O)COc1ccc(Nc2ccccc2)cc1
17.9%	COc1cc(OC)c(NC(=O)Cn2c(SCc3ccccc3F)nc3cccnc32)cc1Cl
18.3%	CCn1cc(C(=O)NP(=O)(Nc2ccc(C)cc2)Nc2ccc(C)cc2)c2ccccc21
11.9%	Cn1nnnc1SCCNS(=O)(=O)c1ccccc1
9.5%	COCCCn1c(=O)/c(=C\c2ccccc2OC(C)C)s/c1=C(/C#N)C(=O)Nc1ccc(C(=O)O)cc1
-9.0%	COC(=O)C1=C(C(=O)OC)SC2(S1)C(C(=O)OC)=C(C(=O)OC)SC1=C2c2cc(C)cc(C)c2NC1(C)C
-3.6%	Cc1cc(C)c(-c2c(O)c3cnn(-c4ccccc4)c3[nH]c2=O)c(C)c1
-7.1%	COc1cc(NC(=O)CNc2ccc(Cl)c(S(=O)(=O)N3CCOCC3)c2)cc(OC)c1
-3.1%	O=C(Nc1ccnn1C1CCN(C(=O)c2cccc(Cl)c2)CC1)C1CC1
-11.4%	O=C1CCCN1c1ccc(S(=O)(=O)NCCOc2ccccc2)cc1
-14.2%	Cc1cc(OCC(=O)NNC(=O)c2cccc(F)c2)ccc1Cl
-7.5%	Cc1c(NC(=O)c2c(O)c3ccccc3n(C)c2=O)c(=O)n(-c2ccccc2)n1C
3.4%	Cc1oc(-c2ccccc2)cc1C(=O)Nc1ccc2ccccc2c1
?	CCOc1ccc(NC(=O)NNC(=O)c2cc3ccccc3cc2O)cc1
3.5%	N#Cc1c(N)oc(-c2ccccc2)c1-c1ccccc1
-24.9%	Nc1nnc(CCS(=O)(=O)c2ccc(Br)cc2)s1
-7.3%	COc1ccc(N2CCN(CCNC(=O)Nc3cc(Cl)ccc3OC)CC2)cc1
-4.0%	CCCCCCCNC(=O)CN1C(=O)CSc2ccc(S(=O)(=O)N3CCOCC3)cc21
-1.8%	O=C(CCc1ccccc1)NCCc1ccc(F)cc1
7.4%	O=C(Cn1cnc2ccccc2c1=O)N(Cc1ccco1)c1ccc(O)cc1
0.7%	Cc1ccccc1-n1ncc2c1CC(C)(C)CC2NC(=O)C1CCC1 (centres undefined)
11.0%	O=C(NC1CCCc2ccccc21)c1ccccn1 (centres undefined)
2.0%	CCn1cc(Cl)c(C(=O)Nc2ccccc2C(N)=O)n1
14.5%	COCc1[nH]nc2c1C1(C(=O)Nc3ccc(F)cc31)C(C#N)=C(N)O2 (centres undefined)
-13.3%	COc1ccc(N=C2C(=Nc3ccc(OC)cc3)N(c3ccccc3)C(=S)N2C(=O)c2ccc(Cl)cc2)cc1
-6.0%	CCOC(=O)c1ccc(NS(=O)(=O)c2cccc3nsnc23)cc1
-3.1%	COc1ccc(-c2cc(=O)c3c(O)cc(O)cc3o2)cc1O
18.2%	CN(CC(=O)NC(=O)NCc1ccccc1)CC(=O)Nc1ccc(Cl)c(Cl)c1
3.8%	Cc1cccc(NC(=O)CNC(=O)COc2ccc(C(=O)c3ccc(F)cc3)cc2)c1C
6.8%	Cc1ccc(C(=O)NCc2ccc3c(c2)CCO3)cc1C
-9.4%	CCOC(=O)c1c(C)n(C)c2ccc(OC)c(NC(=O)c3cccs3)c12
-3.3%	CCOC(=O)C1CCN(C(=O)CN2C(=O)C(C(C)C)Oc3ccccc32)CC1 (centres undefined)
-7.5%	CCN1C(=O)[C@H]2[C@@H](c3ccc(C)cc3)N3C(=O)N(c4cccc(Br)c4)C(=O)[C@@]3(C)[C@H]2C1=O
4.0%	COc1ccc(C(=O)O/N=C(\N)Cc2cccs2)cc1OC
1.2%	COc1ccc(C(=O)NCCn2cc(SC(C)c3ccccc3)c3ccccc32)cc1OC (centres undefined)
-9.1%&-3.5%	COc1ccccc1[C@H]1C(c2ccc(F)cc2)=NN(c2ccccc2)[C@@H]1CO
-0.9%	CCOC(=O)c1cc(-c2ccc(OC)cc2)nn1-c1ccc(C(=O)O)cc1
-8.7%	COc1ccc(/C=N/NC(=O)c2ccccc2)cc1OS(=O)(=O)c1ccccc1
-1.1%	Cc1oc(C)c(S(=O)(=O)NCc2cccs2)c1C(=O)O
-3.3%	CSc1ncc(Cl)c(C(=O)Nc2cccc(Cl)c2)n1
-28.4%	Cc1cccc(-c2nc(Nc3ccc(O)cc3)c3ccccc3n2)c1
-16.3%	O=[N+]([O-])c1cc([N+](=O)[O-])c(Oc2cncc(Cl)c2)cc1NN1CCCCC1
10.2%	Cc1c(Cc2ccccc2)c(NCCN(C)C)n2c(nc3ccccc32)c1C#N
7.8%	COc1ccc(NC(=O)CN2C(=O)C(c3ccc(C(C)(C)C)cc3)=NC2(C)C)cc1Cl
6.5%	CCS(=O)(=O)N1CCN=C1SCc1cccnc1
54.0%[activator]	COc1ccc(C(=O)O)cc1S(=O)(=O)Nc1cc(Cl)ccc1N1CCOCC1
11.2%	COC(=O)c1cccc(NC(=O)C2CCN(S(=O)(=O)Cc3ccccc3)CC2)c1C
-7.6%	N#Cc1ccccc1S(=O)(=O)N1CCN(CC(=O)Nc2ccccc2C(=O)NC2CC2)CC1
4.4%	O=C(Nc1ccc(S(=O)(=O)NC2=NCCCCC2)cc1)c1ccc2ccccc2n1
-3.2%	COc1ccc2[nH]c3c(=O)n(Cc4ccncc4)cnc3c2c1
-1.9%	COc1ccccc1N1CCN(C2CCCN(S(=O)(=O)c3cccc(Cl)c3)C2)CC1 (centres undefined)
-14.8%	Cc1c(Cl)ccc2c(C(N)=O)cc(-c3ccccn3)nc12
1.0%	COc1ccc(-n2cc(C(=O)Nc3cc(F)ccc3F)c3ccccc3c2=O)cc1
-20.8%	Cn1c(SCc2ccc(Cl)cc2)nc(C(F)(F)F)cc1=O
1.3%	CCCCn1c(-c2ccco2)nc2ccccc2c1=O
6.8%	CCCOC(=O)C[N+](C)(C)CCOC1CC2CCC1(C)C2(C)C (centres undefined)
-16.0%	COc1ccc(/C=N/NC(=O)c2cccnc2)cc1COc1ccc([N+](=O)[O-])c(C)c1
-2.1%	O=C(N/N=C/c1cccnc1)c1cc2ccccc2cc1O

(list continues)
VDR inh	molecule
18.1%	O=C(NCC1COc2ccccc2O1)c1cn(Cc2ccc(F)cc2)nn1 (centres undefined)
-7.1%	CCOC(=O)c1c(C)n(S(=O)(=O)c2ccc(C)cc2C)c2ccc(NS(=O)(=O)c3ccc(C)cc3C)cc12
0.4%	O=C(CS(=O)(=O)c1ccccc1)Nc1ccccc1Br
-8.4%	CC(=O)c1cccc(NC(=S)NC2CCCCCCC2)c1
-8.1%	O=C(CN(CC1CCCO1)C(=O)c1nsc(Cl)c1Cl)NC1CCCC1 (centres undefined)
-16.5%	CC(=O)NNC(=O)c1csc(-c2csc(C)n2)n1
-11.9%	O=C1c2cc(O)cc(O)c2C(=O)c2c1cc(O)c([C@@H](CO)CCO)c2O
4.0%	COC(=O)C(NC(C)=O)(Nc1ccc(Br)cc1)C(=O)OC
2.3%	O=S(=O)(Nc1cccc(CO)c1)c1cccs1
-4.2%	O=C(NCc1ccc(Cl)cc1)C(=O)NCC(c1ccco1)N1CCOCC1 (centres undefined)
-14.0%	CC(=O)Nc1nc(-c2ccccc2)nc(C)c1C(C)=O
-17.5%	COc1ccc(-n2cc3c(-c4cccc(Br)c4)nnc(C)c3n2)cc1
17.8%	Cc1ccc(S(=O)(=O)NCC(=O)N(CC(=O)NC2CCCCC2)Cc2ccco2)cc1
-2.7%	COc1ccccc1NC(=O)CSc1nnc(C)n1Cc1ccccc1
2.2%	O=C(NNC(=S)NCc1ccc(Cl)cc1)c1ccc2c(c1)OCO2
-4.4%	Cc1cc(C)cc(C(=O)Nc2cccnc2Cl)c1
8.4%	COCC(C)NC(=O)c1ccccc1[N+](=O)[O-] (centres undefined)
-10.2%	COc1ccc(S(=O)(=O)N/N=C(/C)c2ccncc2)cc1OC
0.7%	COc1ccc(CN2CCN(c3ncnc4sc5c(c34)CC(C)CC5)CC2)cc1F (centres undefined)

The list is partial (hit frequency here may not be typical).
